From PubChem BioAssay
PrP UTR inh: inhibition of PrP 5' UTR reporter expression; inhibition, % (no concentration beside the values); 340,000 compounds, 0.35% hits; cell-based PrP 5' UTR mRNA reporter, plate reader;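 active means every replicate at 50% or more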;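 further: 0 = median of the neutral control wells; tested in H4 reporter cells; numbers are from one replicate; inactives centre near -14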
Mtb hypoxia inh: Mtb hypoxia fluorescent reporter inhibition; fluorescence inhibition, % (test concentration not listed); 300,000 compounds, 0.1% hits; M. tuberculosis hypoxia-regulated fluorescent reporter, fluorescence;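 active means 35 to 45% if threefold the growth effect, above 45% if 1.5-fold the growth effect; inactive means the rest, general growth blockers included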;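 further: wells of about 50 µL received 100 nL stock; 0% = vehicle wells and 100% = reference inhibitor wells; whole bacteria with a GFP reporter of the hypoxia response; strong numbers were not always called active; many hits fall short of the cut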
Sa RN4220 lethal: S. aureus RN4220 growth inhibition. OD600, 16 h. inhibition, % (no concentration beside the values). 330,000 compounds, 0.33% hits;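 active means z-score of -3 or lower and OD600 up to 0.18 on both plates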;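 further: plate controls were untreated cells for no effect and reference antibiotic for full effect; stock transfer was 100 nL into about 80 µL; one replicate is shown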
Autofluor counter: counter-screen for toxin protease inhibitors: compound fluorescence; AID 624483; 360,000 compounds, 3.1% hits; fluorescence intensity (no concentration beside the values); compound autofluorescence counterscreen, microsphere flow cytometry; stronger effect = higher value;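 active means at least 3 SD above the mean of all compounds, about 16000 in these data; inconclusive means too few beads counted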;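 further: 100 nL of 1 mM stock went into each well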
BJeLR viability: kills HRASV12-expressing BJeLR cells. BJeLR (HRASV12) viability, CellTiter-Glo ATP luminescence, 48 h; reference of the scale not given here. inhibition, % (no concentration beside the values). 300,000 compounds, 0.17% hits. AID 1554;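 active means replicate mean above 50%; inconclusive means above 50% but judged a plate artefact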;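 further: 50 nL library stock added to about 25 µL; numbers are from one replicate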
Sa ugtP lethal: growth inhibition of S. aureus ugtP deletion strain; 330,000 compounds, 0.54% hits; S. aureus RN4220 ugtP deletion, OD600 growth, 16 h; some inactives read as strong as hits; growth inhibition, % (concentration not given with the values);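 active means z-score under -3 and OD600 up to 0.15 on both plates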;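 further: plate controls were untreated wells for no effect and antibiotic for full effect; wells of about 80 µL received 100 nL stock; the first replicate is given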
Mtb hypoxia inh growth: recorded beside Mtb hypoxia inh, whose call it bears; growth inhibition, %; measured here: M. tuberculosis growth (absorbance);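 0% = vehicle and 100% = reference antibiotic; read after six days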
Active calls of the source: *; ? = inconclusive; . = no result given.

SMILES	PrP UTR inh	Mtb hypoxia inh	Mtb hypoxia inh growth	Sa RN4220 lethal	Autofluor counter	BJeLR viability	Sa ugtP lethal
CN(C)/C=C1\N=C(c2ccc3c(c2)OCO3)OC1=O	-25	.	.	1.9	2939	-8	7
Cc1ccc(NC(=O)CC2SC(=NC3CCCCC3)NC2=O)cc1 (stereo unspecified)	-10	0	7	3.3	2414	6	0
O=c1[nH][nH]c(C(F)(F)F)c1C=Nc1ccc(Cl)cc1	-14	2	-9	1.3	3527	0	5
CC1CCc2c(sc3ncnc(SCC(=O)Nc4ccc(C(=O)O)cc4)c23)C1 (stereo unspecified)	-25	-9	4	12	3753	-2	16
COc1ccccc1N1CCN(C(=O)CCC(=O)Nc2nnc(C(C)C)s2)CC1	-7	17	9	1.7	5924	-1	5
C[C@H]1C=C(C(=O)N2CCN(Cc3ccc4c(c3)OCO4)CC2)O[C@@H](OCc2ccc(CO)cc2)C1	8	.	.	.	2961	9	.
Cc1cc(-c2ccccc2)nc(N/N=C/c2ccccc2)n1	-42	.	.	.	5860	15	.
CCOc1ccc(/C(O)=C2/C(=O)C(=O)N(CCOCCO)C2c2ccc(F)cc2)cc1 (stereo unspecified)	-20	18	5	-11	3044	-6	2
Cc1nn(C(C)(C)C)c(N)c1-c1ccccc1	-6	2	0	6.5	2472	0	8
Cc1ccc(NC(=O)CNCCCN2CCOCC2)cc1S(=O)(=O)N1CCCCC1	-6	-7	-6	3.3	3743	0	4
CC(=O)c1c(N(C)C)ccnc1C(F)(F)F	0	2	3	2.9	3687	1	-9
N#Cc1c(NC(=O)Cn2cnc3ccccc3c2=O)oc(-c2ccccc2)c1-c1ccccc1	-30	.	.	2.0	2330	-3	4
O=C(Nc1c(F)cccc1F)C(c1ccccc1)c1ccccc1	.	4	-9	2.2	.	4	26
Cc1ccc(C=NN2C(=O)C3C(C2=O)C2C=CC3C23CC3)o1 (stereo unspecified)	.	1	0	1.9	.	.	-9
CC(C)N1CCC(=NNC(=O)c2ccc(Br)o2)CC1	10	.	.	6.3	3301	-7	2
CCCC(=O)Nc1ccc(C(=O)n2ccc(C)n2)cc1	-8	.	.	.	4953	-1	.
NC1=NC(=O)C(=Cc2ccc(-c3ccc(S(N)(=O)=O)cc3)o2)S1	.	0	0	6.4	.	.	6
CCCn1nc(C(=O)NNC(=O)c2ccc(OC(F)F)cc2)c2ccccc2c1=O	-40	-4	-4	4.9	2849	.	5
O=C(CN1C(=O)CCC1=O)NNc1ccc2ccccc2c1	-3	-8	4	-5.7	4543	.	-5
CCOC(=O)C1CCN(CC(=O)Nc2c(C(=O)OC)[nH]c3cccc(C)c23)CC1	-7	.	.	1.0	4239	1	-4
CC(=O)c1sc(NC(=O)c2ccc(Cn3cc(Br)cn3)o2)nc1C	-9	-4	0	1.0	3294	-16	-20
O=[N+]([O-])c1cc2c(cc1[N+](=O)[O-])OCCOCCOCCOCCO2	-21	-1	6	2.5	2425	-10	5
O=S(=O)(Nc1cccc(S(=O)(=O)N2CCOCC2)c1)c1ccc2c(c1)OCCO2	-12	7	-9	4.2	4847	9	-2
C=CCOc1ccc(/C=C/C(=O)OCC(=O)N2CCN(C(C)=O)CC2)cc1	-2	15	12	1.1	3223	.	12
Cc1cc(/C=C2\C(=O)NC(=O)N(Cc3ccco3)C2=O)c(C)n1-c1ccc(O)cc1	4	7	1	7.0	4570	9	1
O=S(=O)(CCc1nc2ccccc2o1)c1ccc(Cl)c(Cl)c1	-13	10	2	-6.8	2935	-5	-6
Cc1ccccc1-c1noc(-c2ccc(Cl)cc2)n1	-79	3	1	1.7	4242	0	-9
Cc1ccc(NC2CCCN(C(=O)c3cn4cc(Cl)ccc4n3)C2)cc1C (stereo unspecified)	-8	1	6	2.7	.	0	1
Cc1cc(C(=O)Nc2nc3ccc(Cl)cc3s2)nn1C	.	6	2	-9.3	.	6	-2
Cc1ccccc1NC(=O)CSc1nn2c(=O)c(C)nnc2s1	-19	5	9	2.2	4831	24	5
COc1cccc(NC(=O)CN(C)C(=O)CCCc2nc3ccccc3s2)c1	-38	-1	-3	1.6	7286	-9	-1
CC(O)C1CNCCN1CC1(c2ccccc2)CC1 (stereo unspecified)	.	5	4	2.6	.	.	0
CSc1ncccc1C(=O)N1CCN(S(=O)(=O)c2ccc(C)cc2)CC1	-26	9	-6	-0.4	3802	-7	6
COc1cccc(CN(C)C(=O)c2cc(S(=O)(=O)N3CCN(c4ccccc4)CC3)ccc2Cl)c1	-22	3	-2	1.8	6709	-4	2
Cc1ccc(S(=O)(=O)Nc2cccc(C(=O)NCCCN3CCCC3=O)c2)cc1F	-2	-1	-4	4.2	5803	-5	2
CC(/C=C/c1ccco1)=NNC(=O)CNc1ccc2ccccc2c1	.	15	12	-5.2	.	.	-8
Cc1ccccc1NC(=S)NNC(=O)c1ccoc1C	-15	6	6	3.7	24040*	-4	4
CCOc1cccc2sc(Cl)nc12	-24	16	5	8.7	4378	2	7
COc1cc(C=NNc2nc3c([nH]2)c(=O)n(C)c(=O)n3C)ccc1O	-19	9	2	1.9	4012	.	2
Cc1cccc(C)c1N=Cc1c(C(F)(F)F)[nH][nH]c1=O	-17	7	9	0.0	2297	-6	4
CS(=O)(=O)N1CCC(C(=O)Nc2cc(Cl)cc(Cl)c2)CC1	-9	-1	5	0.8	4786	5	5
O=C(N/N=C/c1ccc(OCc2ccccc2)cc1)c1ccc(O)cc1	-35	.	.	.	3887	20	.
O=S(=O)(NCCc1csc(-c2ccccc2)n1)c1cccnc1	-5	7	2	17	4458	10	-1
Cc1cc(C)n(-c2ccc(NC(=O)C3CCCCN3C(=O)c3sccc3C)cc2)n1 (stereo unspecified)	-19	1	-12	1.5	4562	4	4
Cc1ccsc1C=NNC(=O)CNC(=O)c1ccccc1	.	6	-2	1.2	.	.	-2

Looked up above.
COc1cc(C=NNc2nc3c([nH]2)c(=O)n(C)c(=O)n3C)ccc1O in Sa RN4220 lethal → 1.9
Cc1cccc(C)c1N=Cc1c(C(F)(F)F)[nH][nH]c1=O in Sa ugtP lethal → 4
Cc1ccsc1C=NNC(=O)CNC(=O)c1ccccc1 in Sa ugtP lethal → -2
O=C(N/N=C/c1ccc(OCc2ccccc2)cc1)c1ccc(O)cc1 in Autofluor counter → 3887

A second format for two compounds above:
SMILES,PrP UTR inh,Mtb hypoxia inh,Mtb hypoxia inh growth,Sa RN4220 lethal,Autofluor counter,BJeLR viability,Sa ugtP lethal
CC(O)C1CNCCN1CC1(c2ccccc2)CC1 (stereo unspecified),.,5,4,2.6,.,.,0
CSc1ncccc1C(=O)N1CCN(S(=O)(=O)c2ccc(C)cc2)CC1,-26,9,-6,-0.4,3802,-7,6

Next compounds
SMILES	PrP UTR inh	Mtb hypoxia inh	Mtb hypoxia inh growth	Sa RN4220 lethal	Autofluor counter	BJeLR viability	Sa ugtP lethal
CS(=O)(=O)NCCCNc1ccc(C(F)(F)F)cc1[N+](=O)[O-]	-4	9	0	1.4	4421	6	3
Cc1cc(C)c(CN2CCC(n3nccc3NC(=O)C3CCCC3)CC2)cc1C	-1	0	8	-4.1	5587	-4	-2
O=C(NN=Cc1cccs1)c1ccc(NC(=O)c2ccccc2Cl)cc1	.	1	12	0.5	.	.	4
COc1ccc(NC(=O)N2CCCC(C(=O)Nc3ccccc3OC)C2)cc1 (stereo unspecified)	0	13	5	2.9	6279	-16	-1
Cc1cc(C(=O)N2CCc3ccccc3C2)n[nH]1	-16	.	.	.	4769	0	.
Cc1onc(-c2ccccc2Cl)c1C(=O)OCC(=O)N1CCC(C)CC1	-8	4	7	6.2	3954	.	7
O=C(CNC(c1ccccc1)c1ccccc1)NCc1ccccc1Cl	-24	-1	3	1.5	4009	-6	9
O=C(CSc1nc2ncccc2[nH]1)NCc1ccccc1	-1	16	0	2.8	12621	-3	1
CCCOc1ccc(-c2nnn(CC(=O)N3CCCC(C)C3)n2)cc1 (stereo unspecified)	2	-5	-2	10	3726	6	-3
COC(=O)C1=C(C(=O)OC)SC2(S1)C(C(=O)OC)=C(C(=O)OC)SC1=C2c2cc(C)ccc2NC1(C)C	-6	-3	3	-0.8	3595	-3	29
COc1cnn(-c2cccc(Cl)c2)c(=O)c1Cl	-3	1	10	3.2	4293	-6	5
CCN(CC)c1ccc(S(=O)(=O)N2CCOCC2)cc1NC(=O)COC(=O)c1ccco1	-8	2	0	2.4	?	-7	8
Cn1nc(C(F)(F)F)c(CN2CC(C)(C)C2=O)c1N1CCOCC1	-9	10	-6	11	4517	9	-73
CC(=O)c1cccc(NC(=O)NNC(=O)CCC(=O)Nc2ccc(C)c(C)c2)c1	-12	-1	6	1.0	4108	20	-1
Cn1cc(CN2CCN(CC(C)(C)C)C(CCO)C2)c2ccccc21 (stereo unspecified)	-10	-1	-1	1.9	2795	-4	3
CCOc1ccc(CN2CCN(C(=O)Cc3ccccc3)CC2)cc1	-11	17	8	-0.8	3589	2	4
c1ccc(Nc2ccnc(Nc3ccccc3)n2)cc1	-99	-5	-1	-9.1	4582	13	-42
COc1ccc(C=NNc2nc(Nc3ccccc3)nc(N3CCCCC3)n2)cc1OC	.	2	0	11	.	.	-13
O=C(O)CCC1(CCC(=O)O)c2ccccc2-c2ccccc21	-51	24	8	7.5	4330	1	3
CC(C)(CO)N=C1NS(=O)(=O)c2cc([N+](=O)[O-])ccc21	-3	-7	7	3.0	2078	-5	2
CCOc1ccc(CCNC(=O)CCn2ccc3cc(S(=O)(=O)N4CCCC4)ccc32)cc1	-17	2	1	3.1	4957	-7	5
COc1ccc(Cc2nnc(NS(=O)(=O)c3ccc(Cl)cc3)s2)cc1OC	4	4	-2	5.9	3625	-6	-12
Nc1ncc(Br)cc1S(=O)(=O)NCCC(=O)NCCc1ccc(Cl)cc1	-11	3	1	-2.5	5938	-2	-16
CCn1c(Cc2ccc(OC)cc2)nnc1SCC(=O)NC1CCCCC1	2	.	.	5.4	3696	-5	-1
Cc1csc(=Nc2ccccc2)n1CCO	-16	11	6	6.4	2407	10	5
O=[N+]([O-])c1cccc2ccc(C=Cc3ccc(Cl)cc3)nc12	.	8	5	-6.4	.	.	3
COc1ccccc1NC(=O)Cn1c(=O)n2nc(C)nc2c2ccccc21	-30	.	.	4.1	4405	-6	3
CCN(CC(=O)Nc1c(F)cccc1F)C(=O)/C=C/c1cn(Cc2ccccc2)nc1-c1cccnc1	-10	-5	-3	1.2	7157	8	-2
O=C(CSc1nnc2ccccn12)Nc1ccc2c(c1)OCO2	-33	5	13	-1.4	4084	-7	5
Cc1nc(SCn2nnc3ccccc3c2=O)nc(C)c1C	-13	11	5	5.8	4265	-6	15
C=CCNc1nc(C)nc(OC)n1	6	.	.	4.0	4312	1	4
O=C(O)c1cccc(S(=O)(=O)NCCc2ccccc2)c1	-6	9	0	-0.3	3612	2	8
CC(=O)c1c(C(C)=O)c(C)n(C2CCCCC2)c1C	-16	17	8	-4.4	2373	-3	4
O=C(Nc1ccc(Cl)cc1)C1(S(=O)(=O)c2ccccc2)CC1	-14	5	6	3.6	2883	.	6
CC1C/C(=N\NC(=O)CCc2ccc(S(=O)(=O)N3CCOCC3)cc2)CC(C)(C)C1 (stereo unspecified)	-28	.	.	.	1977	1	.
Cc1cc(C)n(/N=C/c2cccs2)c(=O)c1C#N	-26	.	.	.	2430	-8	.
COC(=O)c1cc(NC(=O)c2c(-c3c(Cl)cccc3Cl)noc2C)ccc1N1CCOCC1	-22	-4	-15	3.4	6401	-3	9
O=C(CSc1nnc(C2CC2)n1Cc1ccccc1)Nc1cccnc1Cl	-9	-1	-2	6.4	3587	-5	13
COc1ccc(CCNC(=O)CSc2nc3[nH]ncc3c(=O)n2-c2ccccc2OC)cc1OC	-25	9	6	7.5	4187	-5	7
O=C1c2ccccc2S(=O)(=O)N1CC(O)COc1ccc(Br)cc1 (stereo unspecified)	11	7	8	5.9	16210*	9	8
CCOc1ccccc1C=NNC(=O)c1cccc(Cl)c1	.	1	7	4.9	.	.	9
COc1ccc(/C=C2\SC(=O)N(CCNC(=O)C3CC(=O)N(c4ccccc4)C3)C2=O)cc1 (stereo unspecified)	-33	3	6	2.6	10041	-1	15
CC(C)Cn1cnc2c(c1=N)C(c1ccccc1)C1=C(CC(C)(C)CC1=O)O2 (stereo unspecified)	-22	2	6	3.0	?	-4	4
S=c1[nH]nc(COc2ccccc2)n1/N=C/c1ccccn1	-34	.	.	.	2036	11	.
O=[N+]([O-])c1ccc(NN=Cc2cc(Br)ccc2O)nc1	5	37*	5.7*	59	4245	.	93*
O=C(N/N=C/c1cccc(Oc2ccccc2)c1)c1ccccc1Br	15	.	.	.	9424	-5	.
